D2 PAM: positive allosteric modulators of human D2 dopamine receptor. P14416. DiscoveRx D2 beta-arrestin cells, luminescence, 90 min; 100% = 57 uM dopamine signal. potentiation, % (no concentration beside the values). hit rate 0.23% among 360,000. AID 624464; active = potentiation of 50% or more; inconclusive = 30% to 50%; inactive = 30% or less;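 also: compound concentration not given in the record; tested on top of an EC20 dose of dopamine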
Target sequence (P14416 whole entry, looked up): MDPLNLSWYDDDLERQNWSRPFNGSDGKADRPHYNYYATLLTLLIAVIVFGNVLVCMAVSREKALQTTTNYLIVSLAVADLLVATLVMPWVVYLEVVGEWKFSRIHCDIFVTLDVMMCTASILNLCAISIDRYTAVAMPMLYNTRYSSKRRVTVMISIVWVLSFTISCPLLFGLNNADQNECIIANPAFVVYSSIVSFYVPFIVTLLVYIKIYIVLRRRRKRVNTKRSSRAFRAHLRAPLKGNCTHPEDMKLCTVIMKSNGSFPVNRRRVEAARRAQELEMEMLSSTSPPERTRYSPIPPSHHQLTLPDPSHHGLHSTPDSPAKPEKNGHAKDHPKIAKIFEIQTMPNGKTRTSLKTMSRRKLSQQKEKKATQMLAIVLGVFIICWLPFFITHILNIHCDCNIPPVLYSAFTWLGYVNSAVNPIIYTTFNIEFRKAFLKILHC
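PathHunter beta-arrestin assay in DiscoveRx D2 cells. Compounds were added with an EC20 of dopamine (50 nM final) for 90 min at 37 deg C. Luminescence was read 1 h after detection reagent, with 57 uM dopamine as the EC100 control.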
Six1-Eya2 blk: blocks human Six1 binding to Eya2. Q15475+O00167. AlphaScreen GST-Six1/His-Eya2 binding, biochemical; active compounds read low; control for the full effect not named in the record. activity change, % (no concentration beside the values). hit rate 0.56% among 360,000. AID 651725; in the data active = activity change below about -65%; inconclusive = about -30% to -65%; inactive = above about -30%; also: % is scaled to controls: 0 for no effect and ±100 for the full control effect
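AlphaScreen luminescence read after one hour at 37 °C in darkness. Pin-transferred compounds met GST-Six1 and His-Eya2 protein (5X stock 250 nM/500 nM) plus glutathione donor and Ni-chelate acceptor beads (5X, 50 ug/mL).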
TRPV1 potentiator: enhances activation of the human vanilloid receptor TRPV1. hit rate 0.02% among 320,000. TRPV1-expressing cells, Fluo-8 calcium influx, capsaicin EC20 potentiation; host cell line not named in the record; control for the full effect not named in the record. Q8NER1. potentiation, % at 8.33 µM; active means potentiation above 80%; inconclusive means 30% to 80%; inactive means below 30%; also: 0% is about no effect
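TRPV1-expressing cells were cultured overnight at 35.5C and loaded with Fluo-8 calcium dye for 40 to 90 min at room temperature. After a 10 s baseline, compound was added and calcium influx was read kinetically for 3 min (ex 480/em 520 nm).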
TRPML1 blocker: human mucolipin-1 channel inhibition | TRPML1-inducible cells, Ca2+ dye fluorescence, FDSS; active compounds read low; inhibition of EC80 agonist-evoked calcium signal | activity change, negative = inhibition, % (concentration not given with the values) | hit rate 0.02% among 390,000; in the data active means activity change below about -50%; inconclusive means about -30% to -50%; inactive means above about -30%;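 also: stimulus is agonist 54-4 at its EC80 concentration; % is scaled to controls: 0 for no effect and ±100 for the full control effect; the text of the record puts the active cut at -80%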
Target sequence (Q9GZU1 whole entry, looked up): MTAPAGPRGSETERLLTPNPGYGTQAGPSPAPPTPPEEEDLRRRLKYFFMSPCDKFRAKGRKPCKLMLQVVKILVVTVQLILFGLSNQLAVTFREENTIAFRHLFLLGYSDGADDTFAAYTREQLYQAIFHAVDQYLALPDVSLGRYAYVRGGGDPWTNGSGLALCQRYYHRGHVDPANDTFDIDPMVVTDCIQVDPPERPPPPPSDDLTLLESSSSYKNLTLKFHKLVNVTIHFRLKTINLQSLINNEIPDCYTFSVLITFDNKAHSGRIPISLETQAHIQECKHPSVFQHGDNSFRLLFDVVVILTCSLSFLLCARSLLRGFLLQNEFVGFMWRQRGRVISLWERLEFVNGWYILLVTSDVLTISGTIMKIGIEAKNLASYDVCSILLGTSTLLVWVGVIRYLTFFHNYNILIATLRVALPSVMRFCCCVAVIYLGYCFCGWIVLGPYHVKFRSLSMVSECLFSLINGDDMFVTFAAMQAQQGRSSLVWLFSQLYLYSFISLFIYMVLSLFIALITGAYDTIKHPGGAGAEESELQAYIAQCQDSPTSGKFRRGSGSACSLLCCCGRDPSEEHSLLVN
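TRPML1-DL cells, Tet-induced overnight (~16 h, 37 °C) at 1,500 cells/well, were loaded with Ca8 no-wash dye plus quencher for 45-90 min at room temperature. Compounds were pinned during FDSS kinetic reading; agonist 54-4 at EC80 (4 uM final) then added.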
CtBP-E1A inh: inhibitors of CtBP/E1A interaction; AlphaScreen GST-E1A/His-CtBP binding, 1536-well; active compounds read low; control for the full effect not named in the record; activity change, % (concentration not given with the values); hit rate 0.49% among 340,000; AID 651724; in the data active means activity change below about -65%; inconclusive means about -30% to -65%; inactive means above about -30%; also: % is scaled to controls: 0 for no effect and ±100 for the full control effect
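In 5 uL wells, 23 nL compound meets equimolar GST-E1A and His-CtBP (5X stock 125 nM each) for 2 h, 37 °C. Beads (5X, 50 ug/mL) then 1 h, 37 °C, dark.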
TRPML1 agonist: human mucolipin-1 channel agonism; TRPML1-expressing cells, Ca2+ dye fluorescence, FDSS; host cell line not named in the record; reference of the full effect not given here; activation, % (concentration not given with the values); AID 624414; hit rate 0.12% among 410,000; Q9GZU1; in the data active = activation above about 50%; inconclusive = about 30% to 50%; inactive = below about 30%; also: 0% is about no effect; the text of the record puts the active cut at 80%
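Cells: TRPML1-DL, 1X Tet inducer, ~16 h at 37 degrees C/5% CO2. Dye: ABD Ca8 no-wash + quencher, 45-90 min RT. Read: 10 s baseline, compound add, 110 s agonist phase; 54-4 EC80 (4uM final), 110 s antagonist phase.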
The depositor's hits bear a star; ? = inconclusive; · = no result given; & = joins results of further samples.

Values run as follows: D2 PAM, Six1-Eya2 blk, TRPV1 potentiator, TRPML1 blocker, CtBP-E1A inh, TRPML1 agonist
Cc1ccc(S(C)(=O)=O)cc1C(=O)NC(C)C1CC2CCC1C2 (stereo unspecified)
    -8, -10, -1, -1, 8, -0.8
Cc1nn(C)cc1CN(C)C(=O)c1cc(-c2ccccc2)nc2ccc(Br)cc12
    7, -4, 3, -10&-3, 6, 1.9&-0.1
COCCNC(=O)COC(=O)c1[nH]c(C)c(C(C)=O)c1C
    -4, 7, 2, 0, 3, -0.2
Cc1ccc(NC(=O)Cn2cnc([N+](=O)[O-])c2)cc1C
    -7, -1, -16, -7, -2, -0.3
NC(=O)c1ccccc1OC1CCC1
    -10, 5, 9, 19, 14, 0.3
CCNS(=O)(=O)c1ccc(CCC(=O)NCCC2=CCCCC2)cc1
    -19, 4, -30, 15, 1, 0.5
CC(C)(O)CC[C@@H](O)[C@](C)(O)[C@H]1CC[C@@]2(O)C3=CC(=O)[C@@H]4C[C@@H](O)[C@@H](O)C[C@]4(C)[C@H]3CC[C@]12C
    -4, 0, -6, -8, 0, -0.5
O=C(CN1CCN(Cc2ccccc2Cl)C1=O)NC1CCCCCC1
    -13, 4, 28, 10, 1, 0.4
S=C(NCCc1ccccc1)N/N=C/c1ccccc1Cl
    -20, -2, 3, 4, -8, 2.1
Cc1cc(C)n(C(=O)CN2C(=O)CCC2=O)n1
    6, 1, 0, 2, 1, -0.8
Cc1ccn2c(=O)c(C(=O)NCCC3=CCCCC3)c(O)nc2c1
    -9, 1, 1, 2, ·, 1.0
Cc1cc([N+](=O)[O-])ccc1NC(=O)C(C)[n+]1ccccc1 (stereo unspecified)
    -13, 17, -6, 4, -11, -0.4
Nc1ccccc1C(=O)NCCCN1CCOCC1
    -7, 3, 7, -10, 2, -0.3
COC(=O)CSc1nc(C)c(C(=O)Nc2ccccc2C)c(-c2ccc(Cl)cc2)c1C#N
    9, 7, -15, -8, 2, 2.5
CC(C)c1cccc(-c2csc(C(C)(O)c3cccc(F)c3)n2)c1 (stereo unspecified)
    -3, 2, ·, ·, 17, 1.0

Grouped by structure: the compounds so far containing a nitro group on carbon.
Values run as follows: D2 PAM, Six1-Eya2 blk, TRPV1 potentiator, TRPML1 blocker, CtBP-E1A inh, TRPML1 agonist
Cc1ccc(NC(=O)Cn2cnc([N+](=O)[O-])c2)cc1C
    -7, -1, -16, -7, -2, -0.3
Cc1cc([N+](=O)[O-])ccc1NC(=O)C(C)[n+]1ccccc1 (stereo unspecified)
    -13, 17, -6, 4, -11, -0.4

Later entries:
Values run as follows: D2 PAM, Six1-Eya2 blk, TRPV1 potentiator, TRPML1 blocker, CtBP-E1A inh, TRPML1 agonist
Cc1ccc(C2CC(=O)Nc3c2ccc2ccccc32)cc1[N+](=O)[O-] (stereo unspecified)
    -6, -21, -7, 7, -1, -0.8
CCCCCn1c(CN(C)Cc2ccccc2)nc2c1c(=O)n(C)c(=O)n2C
    -5, -27, 6, 31, -2, -0.9
O=C1CCC/C=C\C[C@@H](CC(=O)N(CCO)Cc2ccccc2)C(=O)N[C@H](c2ccccc2)CO1
    -2, 0, ·, -26, 2, 0.7
COc1ccc(C2CC(c3ccccc3)Nc3nc(N)nn32)cc1 (stereo unspecified)
    2, 0, -13, -6, 4, 1.0
COc1cccc(C(CC(=O)NCCN2CCOCC2)NS(=O)(=O)c2ccc(C)cc2)c1OC (stereo unspecified)
    7, 8, 22, 14, 4, -0.3
CC(C)Cn1c(SCC(=O)NC2CCCc3ccccc32)nc(O)cc1=O (stereo unspecified)
    -14, 0, 17, 9, -2, 4.4
COc1ccc(/C=C/CN2CCN(Cc3ccc(F)cc3)C(CCO)C2)cc1 (stereo unspecified)
    -23, -9, -5, 4, -1, -0.7
COc1cc(/C=C2\SC(=O)N(Cc3ccc(Cl)cc3)C2=O)cc([N+](=O)[O-])c1O
    -10, -5, 12, 9, -3, -1.1
COC(=O)c1cc(S(=O)(=O)N2CCN(c3cc(C)ccc3C)CC2)c[nH]1
    -4, -1, -29, -10, -10, 0.9
COCCNC(=O)/C(C#N)=C/c1cc(Br)c(O)c(OC)c1
    2, 4, 4, -1, 0, 0.0
CCCNC(=O)CS(=O)Cc1nc(-c2ccc(OC)cc2)oc1C (stereo unspecified)
    -1, -1, -3, 4, -1, 0.0
CC(CCc1ccccc1)NC(=O)C(=O)NCc1ccccc1 (stereo unspecified)
    9, 15, -4, -12, -5, 0.1
CCc1ccccc1NC(=O)c1ccc(S(=O)(=O)NCC2CCCO2)cc1 (stereo unspecified)
    -3, -4, -4, 18, -17, 0.2
CN(C(=O)COc1ccccc1)c1ccc([N+](=O)[O-])cc1
    -11, 20, ·, 3, 5, -0.1
COc1ccc(C2CC(c3cccc(C)c3)n3ncnc3N2)cc1 (stereo unspecified)
    -2, 4, 2, -6, 2, 0.6

Copied from the list.
CC(C)(O)CC[C@@H](O)[C@](C)(O)[C@H]1CC[C@@]2(O)C3=CC(=O)[C@@H]4C[C@@H](O)[C@@H](O)C[C@]4(C)[C@H]3CC[C@]12C in D2 PAM: -4
Cc1ccc(NC(=O)Cn2cnc([N+](=O)[O-])c2)cc1C in TRPML1 agonist: -0.3

Further entries.
Values run as follows: D2 PAM, Six1-Eya2 blk, TRPV1 potentiator, TRPML1 blocker, CtBP-E1A inh, TRPML1 agonist
CC(C)n1nccc1N(Cc1ccc(Br)cc1)S(=O)(=O)c1ccccc1
    0, -23, -9, 69, -29, -0.8
Cc1cc(OCC(=O)NCc2nc(-c3ccccc3)no2)c(C)cc1Br
    -20, -2, 0, 3, 2, -0.3
Cc1cnc(C(=O)Oc2ccc(-c3ccccc3)cc2)cn1
    -4, 11, 29, -11, -1, 0.0
CCC(C)[C@H](NC(=O)OC(C)(C)C)C(=O)N/N=C/c1ccc2nccnc2c1 (stereo partly specified)
    -6, -5, 22, 6, -15, -0.1
Oc1cccc(/C=N/N2CCCCC2)c1O
    9, -11, -6, 12, ·, 3.3
CC(O)CCC(=O)NCCNC(=O)CCC(C)O (stereo unspecified)
    -13, 0, -7, -5, 3, 1.4
O=C(NC1CCCC1)c1cc(Cl)ccc1[N+](=O)[O-]
    -19, 2, 0, 16, 12, -0.2
CCOC(=O)CSc1nnc(-c2ccoc2C)n1-c1ccc(OCC)cc1
    4, -19, -4, 19, -26, 2.6
Cc1cc(N/N=C/c2cccc(F)c2)nc(NCc2ccccc2)n1
    -18, -18, -23, -4, 2, 1.0
Cc1nc(NC(=O)C2CCCC2)sc1Cc1ccc2c(c1)OCO2
    19, -8, -9, 8, 5, 1.2
O=C(CN1C(=O)NC2(CCCc3ccccc32)C1=O)Nc1cc(F)ccc1F (stereo unspecified)
    -21, 2, 0, -13, 23, 0.1
Cc1c(NC(=O)Nc2ccc(C#N)cc2)c(=O)n(-c2ccccc2)n1C
    -10, -4, 10, 9&-4, ·, 0.3&-0.5
Cc1ccc2c(c1)N(CC(=O)N1CCCc3ccccc31)C(=O)CO2
    -18, 7, 21, 9, 3, 0.9
CC1(C(=O)NS(=O)(=O)c2ccc3c(c2)CCO3)CCN1C(=O)c1ccccc1CCc1ccccc1 (stereo unspecified)
    4, 9, ·, ·, 11, -0.4
COc1cc(C(=O)NCC(=O)OCC(=O)N2CCc3ccccc32)cc(OC)c1OC
    -21, 4, ?, -2, -2, -1.3
O=C1c2oc3ccc(F)cc3c(=O)c2C(c2ccc(F)cc2)N1CCCN1CCOCC1 (stereo unspecified)
    -1, -3, ·, 2, 6, -0.5
CC1CCC(NC(=O)Cn2c(=O)oc3ccccc32)CC1 (stereo unspecified)
    -6, -17, -8, -2, -12, 0.3
CC(CCc1ccccc1)NC(=O)CN(C)Cc1ccc(F)cc1 (stereo unspecified)
    -21, 2, 9, 20, 4, 1.0
O=C(Nc1ccccc1-c1nc2ccccc2s1)c1cccnc1
    -3, -4, 11, 8, -14, 0.0
CC(C)[C@H](NC(=O)N1c2ccccc2NC(=O)[C@@H]1C(C)C)C(=O)N[C@H](C(=O)O)c1ccccc1
    -31, 8, -16, ·, 7, ·
CCc1ccc(OCC(=O)OC2CCS(=O)(=O)C2)cc1 (stereo unspecified)
    6, 1, 20, 28, 7, -0.1
CCOCC(=O)NCc1ccc2c(c1)cc(C)n2C
    -5, -5, 7, 3, -18, 1.2
O=C1OCCC1Sc1nc2ccccc2n1Cc1ccccc1 (stereo unspecified)
    5, 1, -10, 11, 3, 0.8
O=C(CCNC(=O)C1CCN(S(=O)(=O)c2ccccc2)CC1)NC1CC1
    -2, 3, -8, -9, 14, -0.3
CCOC(=O)c1ccc(NC(=O)CSc2nnc(Cc3cccs3)n2C)cc1
    -13, -5, -2, -1, -1, -0.5
COc1ccc(CC(N)c2csc(Nc3cnccn3)n2)cc1 (stereo unspecified)
    -13, ?, ·, 16, -75*, 0.8
N#CC(C#N)=C1NC2(CCCCC2)Cc2ccccc21
    -16, -1, -15, -8, ·, 0.4
CC(NC(=O)/C(C#N)=C/c1ccc(C(=O)O)cc1)c1ccccc1 (stereo unspecified)
    1, -3, 8, -11, -8, -0.4
Cn1nnnc1SCC(=O)c1ccc(Br)s1
    -10, 5, -13, 9, 2, -0.5
CC(c1ccccc1)N1CC(C(=O)N2CCCC(C(N)=O)C2)CC1=O (stereo unspecified)
    2, 10, -3, 1, ·, -0.4

Going on with the list:
Molecule | D2 PAM | Six1-Eya2 blk | TRPV1 potentiator | TRPML1 blocker | CtBP-E1A inh | TRPML1 agonist
Cc1nnc(SCC(=O)Nc2ccc(N(C)C)cc2)n(N)c1=O | -7 | 1 | -4 | -7 | 0 | -0.1
Cn1c(=O)c(C(N)=S)cn(-c2ccccc2)c1=O | -4 | 2 | 18 | -15 | 5 | 1.0
Cc1ccc(-c2nnc(N(C)C(=O)c3ccccn3)s2)cn1 | 4 | -8 | 4 | 31 | -13 | -1.0
COc1ccc(-n2c(C)cc(/C=C(\C#N)C(=O)NCc3ccco3)c2C)cc1 | -11 | 7 | 7 | 1 | 0 | 0.7
O=C(CN1C(=O)S/C(=C\C=C\c2ccccc2)C1=O)Nc1ccccc1C(=O)O | -9 | -15 | 11 | 5 | · | 1.6
Cc1cccc(OCCNC(=O)CCc2ccccc2)c1 | -11 | 3 | · | 10 | 8 | 1.1
Cc1ccc(-n2c(Cl)c(Cl)[nH]c(=O)c2=O)cc1 | 5 | -7 | 4 | 16 | 11 | 0.6
OC(CN1CCN(c2ccccc2F)CC1)c1ccc(F)cc1 (stereo unspecified) | -9 | -4 | ? | -1 | 11 | -0.4
Cc1c(NC(=O)Nc2ccc(F)cc2F)c(=O)n(-c2ccccc2)n1C | 5 | -4 | -8 | 10 | -15 | -0.3
O=C(CN1C(=O)NC2(CCc3ccccc32)C1=O)NC1CCCCC1 (stereo unspecified) | -13 | -13 | · | -15 | -12 | 0.0
CC(=O)Nc1ccc(NC(=O)CSc2nnc(NC(=O)C3CC3)s2)cc1 | -9 | -3 | 7 | -13 | -5 | 0.3
CCN(CC)c1ccc(/C=N/NC(=O)Cc2cccs2)c(O)c1 | -16 | ? | -5 | -7 | ? | -0.1
O=C(CN1CCC(n2nnc3cc(F)ccc32)CC1)NNC(=O)c1ccccc1 | -19 | 5 | -5 | 17 | 4 | 0.4
COc1ccc(C2=Nn3c(nnc3-c3ccccn3)SC2)cc1 | -16 | -67* | · | 31 | ? | 0.9
CC(=O)Nc1ccc(NC(=O)CSc2nnc(NC(=O)Cc3ccc(F)cc3)s2)cc1 | -6 | -3 | -46 | -7 | 1 | 1.0
